# Screening results deposited in PubChem by several laboratories.
# PrP UTR inh: suppresses PrP 5' UTR mRNA reporter expression | inhibition, % (test concentration not listed) | cell-based PrP 5' UTR mRNA reporter, plate reader | actives 0.35% (n = 340,000);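 active = every replicate at 50% or more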;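 also: 0 = median of the neutral control wells; tested in H4 reporter cells; numbers are from one replicate; inactives centre near -14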
# Bead autofluor: flagged as autofluorescent in microsphere protease counterscreen; compound autofluorescence counterscreen, microsphere flow cytometry; active compounds read high; fluorescence intensity (no concentration beside the values); actives 3.1% (n = 360,000);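 active = at least 3 SD above the mean of all compounds, about 16000 in these data; inconclusive = too few beads counted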;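 also: 100 nL of 1 mM stock went into each well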
# ugtP null kill: compounds lethal to S. aureus RN4220 ugtP deletion mutant; OD600 growth, 16 h; some inactives read as strong as hits; growth inhibition, % (concentration not given with the values); actives 0.54% (n = 330,000); AID 1259309;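 active = z-score under -3 and OD600 up to 0.15 on both plates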;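 also: plate controls were untreated wells for no effect and antibiotic for full effect; wells of about 80 µL received 100 nL stock; the first replicate is given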
# Mtb hypoxia rep: reduces hypoxia-regulated biosensor signal in M. tuberculosis | fluorescence inhibition, % (concentration not given with the values) | actives 0.1% (n = 300,000) | M. tuberculosis hypoxia-regulated fluorescent reporter, fluorescence | AID 1159583;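 active = 35 to 45% if threefold the growth effect, above 45% if 1.5-fold the growth effect; inactive = the rest, general growth blockers included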;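 also: wells of about 50 µL received 100 nL stock; 0% = vehicle wells and 100% = reference inhibitor wells; whole bacteria with a GFP reporter of the hypoxia response; strong numbers were not always called active; many hits fall short of the cut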
# BJeLR lethal: kills HRASV12-expressing BJeLR cells. BJeLR (HRASV12) viability, CellTiter-Glo ATP luminescence, 48 h; reference of the scale not given here. inhibition, % (test concentration not listed). actives 0.17% (n = 300,000). AID 1554;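 active = replicate mean above 50%; inconclusive = above 50% but judged a plate artefact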;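 also: 50 nL library stock added to about 25 µL; numbers are from one replicate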
# RN4220 kill: S. aureus RN4220 growth inhibition; OD600, 16 h; inhibition, % (no concentration beside the values); actives 0.33% (n = 330,000); AID 1259311;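 active = z-score of -3 or lower and OD600 up to 0.18 on both plates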;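 also: plate controls were untreated cells for no effect and reference antibiotic for full effect; stock transfer was 100 nL into about 80 µL; one replicate is shown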
# Mtb hypoxia rep growth: recorded beside Mtb hypoxia rep, whose call it bears; growth inhibition, %; measured here: M. tuberculosis growth (absorbance);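 0% = vehicle and 100% = reference antibiotic; read after six days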
# * = called active by the depositor; ? = inconclusive; nt = no result given. Outcome played no part in choosing rows (roughly 3.9% active in at least one column).
SMILES,PrP UTR inh,Bead autofluor,ugtP null kill,Mtb hypoxia rep,Mtb hypoxia rep growth,BJeLR lethal,RN4220 kill
COc1cc(C(=O)N(C)Cc2cccc(OC)c2OC)ccc1OCC(=O)Nc1cccc(C(F)(F)F)c1,6,?,3,11,12,-5,1.2
CC1CCCC(C)N1C(=O)Cn1c(=O)sc2ccccc21 (configuration not stated),7,6571,5,nt,nt,-1,1.6
CCc1noc(C)c1C(=O)N1CCCC(N2CCN(c3ccccc3F)CC2)C1 (configuration not stated),-24,5884,-1,-3,8,2,-2.1
Cc1ccc(S(=O)(=O)O/N=C2\CCCc3ccccc32)cc1,-8,2791,nt,nt,nt,3,nt
CCn1c(SC)nnc1-c1sc2cc(Cl)ccc2c1Cl,-17,2353,4,13,7,5,6.6
CCOc1ccccc1-n1ccn(CC(=O)Nc2ccc(Br)cc2F)c(=O)c1=O,-48,5773,8,-2,0,0,1.2
CC(=O)c1c(C)[nH]c(C(=O)OCC(=O)c2c(N)n(CC(C)C)c(=O)n(C)c2=O)c1C,-21,nt,-2,-4,2,nt,4.2
CC(C)(C)OC(=O)N1CCC(c2c(C(=O)N3CCN(C(=O)c4ccco4)CC3)cnn2-c2cccc(Cl)c2)CC1,-19,?,-1,-8,-3,1,1.4
COc1ccccc1NC1=C(Cl)C(=O)OC1OC(=O)c1ccco1 (configuration not stated),-60,2538,5,13,5,-3,4.3
COc1ccc(C=NNC(=O)c2ccccc2NS(=O)(=O)c2cccs2)cc1O,-16,?,3,6,5,nt,9.5
COc1cccc(CCNCc2c(F)cccc2F)c1,-19,3411,-1,5,3,2,2.8
CNC(=O)CN(c1ccc(C23CC4CC(CC(C4)C2)C3)cc1)S(C)(=O)=O,-20,5208,8,8,0,4,6.7
O=c1c2cc([N+](=O)[O-])ccc2nc2n1CCC2,-10,3093,7,9,7,-5,3.7
CCN(CCn1cccn1)C(=O)CCc1nnc(CCc2ccccc2OC)o1,-9,1926,2,10,3,5,3.6
Cc1ccc(OCc2nc(-c3ccccn3)no2)c(Br)c1,15,4364,3,-3,7,6,7.1
O=C1c2ccccc2C(=O)N1N=Cc1ccc(O)c(O)c1O,nt,nt,2,7,4,nt,6.3
CCn1ccnc1CN(C)C(=O)CC1C(=O)NCCN1Cc1c(F)cccc1Cl (configuration not stated),-21,4428,4,2,-1,3,0.6
CCCC(=O)N/C(N)=N/c1nc(C)c2ccccc2n1,-58,4304,3,8,-1,16,3.0
O=C(Nc1ccc(S(=O)(=O)Nc2ncccn2)cc1)C12CC3CC(CC(Cl)(C3)C1)C2,11,4165,2,15,17,nt,11
Cc1ccc(-c2cc(C(=O)Nc3nccs3)c3ccccc3n2)o1,-24,10496,nt,nt,nt,3,nt
CCc1ccc(NC(=O)C2(C)Cc3ccccc3C(=O)O2)cc1 (configuration not stated),-21,4559,3,4,4,17,4.7
CCc1ccc(N2CC(C(=O)Nc3ccc(S(=O)(=O)Nc4nccs4)cc3)CC2=O)cc1 (configuration not stated),-36,3753,7,16,22,-4,1.2
Cc1cc(C(=O)COC(=O)c2ccc[nH]c2=O)c(C)n1C1CC1,-21,2063,-1,13,-6,-4,1.8
Nc1c(NCc2ccccc2)c(=O)c1=O,-68,?,3,5,-1,-10,3.3
O=C1CCN(Cc2nc(-c3ccc(Cl)cc3)no2)CCN1,-4,3312,4,3,0,3,4.7
O=C(CSc1nc2ccccc2c(=O)n1CCCO)NC1CC1,-15,6199,5,15,6,nt,7.9
O=C(COC(=O)c1n[nH]c(=O)c2ccccc12)c1ccccc1,-22,2636,8,nt,nt,1,0.4
O=C(C[n+]1cc(Br)cc2ccccc21)c1ccccc1,-10,6295,9,12,-5,-4,-3.8
C=CCN1C(=NC(=O)CCC(=O)O)SC2CS(=O)(=O)CC21 (configuration not stated),-20,2416,4,2,9,0,4.7
COc1ccccc1N(CC(=O)NCCc1ccccc1)S(C)(=O)=O,-24,10854,-6,2,6,-5,6.4

# Molecules above that have an NH in an aromatic ring, in the order listed:
SMILES,PrP UTR inh,Bead autofluor,ugtP null kill,Mtb hypoxia rep,Mtb hypoxia rep growth,BJeLR lethal,RN4220 kill
CC(=O)c1c(C)[nH]c(C(=O)OCC(=O)c2c(N)n(CC(C)C)c(=O)n(C)c2=O)c1C,-21,nt,-2,-4,2,nt,4.2
Cc1cc(C(=O)COC(=O)c2ccc[nH]c2=O)c(C)n1C1CC1,-21,2063,-1,13,-6,-4,1.8
O=C(COC(=O)c1n[nH]c(=O)c2ccccc12)c1ccccc1,-22,2636,8,nt,nt,1,0.4

# Other compounds
SMILES,PrP UTR inh,Bead autofluor,ugtP null kill,Mtb hypoxia rep,Mtb hypoxia rep growth,BJeLR lethal,RN4220 kill
Cc1ccc(NC(=O)C2CCCN(S(=O)(=O)c3cnc[nH]3)C2)cc1F (configuration not stated),-37,4970,9,nt,nt,nt,4.5
O=C(NCCCN1CCOCC1)C1CC(=O)N(CCc2ccccc2)C1 (configuration not stated),-11,3454,-6,8,7,4,-14
Cc1ccc(-c2[nH]ncc2/C=C(\C#N)C(=O)NC2CCCCC2)cc1,2,3880,-8,nt,nt,6,5.4
O=C(Nc1ccccn1)Nc1ccccc1[N+](=O)[O-],-47,3795,16,-1,-1,3,4.9
COc1cccc(/C=C2\SC(=S)N(CCCC(=O)N3CCCCC3CCO)C2=O)c1 (configuration not stated),-2,6007,-9,1,10,-2,3.4
CN=C1c2cc3cc(OC)ccc3n2CCN1C,-1,5813,-2,-2,4,0,-1.7
Cc1cccc(C(=O)Nc2cccc(C(=O)NN=Cc3ccc4c(c3)OCO4)c2)c1,nt,nt,-6,8,8,nt,6.8
COc1ccc(CNS(=O)(=O)c2c(C)[nH]c(C)c2C(=O)N2CCCCC2)cc1,-15,5416,4,6,6,2,2.8
Cc1ccc(NC(=O)CSc2cccc[n+]2[O-])c([N+](=O)[O-])c1,-9,3752,3,11,3,-13,3.7
Cc1c(-c2nc(N)nc(Nc3ccc(F)cc3)n2)oc2ccccc12,-120,5036,8,nt,nt,4,-0.4
COc1ccc(NC(=O)CSc2nnc(CC(=O)Nc3ccc(F)cc3)n2C)cc1,-29,4079,13,16,3,-3,2.0
CCCCCCCNC1=CC(=O)CC(c2ccco2)C1 (configuration not stated),-28,4366,-13,21,12,6,6.3
CC1C=C[C@](Cc2ccccc2)(C(=O)O)N1C(=O)c1ccccc1 (some centres not stated),nt,nt,3,21,8,nt,12
O=C(COC(=O)c1ccc(Cl)cc1Cl)Nc1cccc(S(=O)(=O)NC2=NCCC2)c1,-17,6199,6,5,6,nt,6.4
CN(Cc1ccccc1)C(=O)CCCn1c(=O)c2cccn2c2cccnc21,-16,5137,5,1,6,5,3.5
CN1C(=O)C2C(C3CC3)N3C(=O)CN(CC4CC4)C(=O)[C@@]3(C)C2C1=O (some centres not stated),nt,nt,12,9,5,nt,2.1
COCCN1CCn2c(nc3cc([N+](=O)[O-])ccc32)C1,-14,4393,-4,11,6,-4,5.8
O=C(COC(=O)Cc1cn2ccsc2n1)NCc1ccc2c(c1)OCO2,-11,11249,-1,-3,7,0,1.0
Cc1ccc(/C=N/NC(=O)c2cccnc2)o1,1,5007,nt,nt,nt,1,nt
COc1cc(CN2C(=O)NC(=O)C3(Cc4cc(C)ccc4N(C)C3)C2=O)cc(OC)c1 (configuration not stated),2,22009*,-7,-3,7,nt,1.6

# A section from further up, as a working copy:
SMILES,PrP UTR inh,Bead autofluor,ugtP null kill,Mtb hypoxia rep,Mtb hypoxia rep growth,BJeLR lethal,RN4220 kill
O=C(COC(=O)c1ccc(Cl)cc1Cl)Nc1cccc(S(=O)(=O)NC2=NCCC2)c1,-17,6199,6,5,6,nt,6.4
CN(Cc1ccccc1)C(=O)CCCn1c(=O)c2cccn2c2cccnc21,-16,5137,5,1,6,5,3.5
CN1C(=O)C2C(C3CC3)N3C(=O)CN(CC4CC4)C(=O)[C@@]3(C)C2C1=O (some centres not stated),nt,nt,12,9,5,nt,2.1
COCCN1CCn2c(nc3cc([N+](=O)[O-])ccc32)C1,-14,4393,-4,11,6,-4,5.8
O=C(COC(=O)Cc1cn2ccsc2n1)NCc1ccc2c(c1)OCO2,-11,11249,-1,-3,7,0,1.0
Cc1ccc(/C=N/NC(=O)c2cccnc2)o1,1,5007,nt,nt,nt,1,nt
COc1cc(CN2C(=O)NC(=O)C3(Cc4cc(C)ccc4N(C)C3)C2=O)cc(OC)c1 (configuration not stated),2,22009*,-7,-3,7,nt,1.6

# Continuation:
SMILES,PrP UTR inh,Bead autofluor,ugtP null kill,Mtb hypoxia rep,Mtb hypoxia rep growth,BJeLR lethal,RN4220 kill
CCN(CC)S(=O)(=O)c1cc(NC(=O)CNc2c(C)n(C)n(-c3ccccc3)c2=O)ccc1C,0,4668,8,4,6,16,3.8
CCCCn1c(CCl)nc2cc(S(=O)(=O)N3CCOCC3)ccc21,-3,6402,9,20,23,nt,5.1
CCCCN1C(=O)Cc2c1nc(N)c1c(N)nc(N(CCC)CCC)c(C#N)c21,10,3338,5,4,0,-2,1.0
O=C(NCCCn1ccnc1)c1noc2c1CCCC2,-19,11389,6,6,0,0,2.4
CC1(C)Cc2c(sc3[nH]c(=O)n(CC(=O)NCC4CCCO4)c(=O)c23)CO1 (configuration not stated),-2,5881,0,0,5,-1,2.5
CN1CCN(c2ccccc2NC(=O)Cc2cn(C)c3ccccc23)CC1,3,5736,14,1,1,9,5.6
CC(C)OC(=O)c1nnc(-c2ccccc2)nc1OC(C)C,-20,2866,-4,nt,nt,-11,2.7
Cn1cnnc1Sc1cc(N2CCN(S(=O)(=O)c3ccc(Cl)c(Cl)c3)CC2)ccc1[N+](=O)[O-],12,2449,-3,6,4,-4,-7.3
CCOC(=O)c1cnc2[nH]c3ccccc3n2c1=O,-6,4452,4,12,14,4,7.8
CSc1ccccc1NC(=O)CN1CC(C)OC(C)C1 (configuration not stated),-18,3325,1,4,5,3,-1.0
Cc1cc2c(=O)n(C)c(SCC(=O)c3cc4ccccc4o3)nc2s1,-19,4403,-15,10,7,-5,11
O=C(O)/C=C/C(=O)OC1CC2CCC1C2 (configuration not stated),-15,4846,6,12,5,3,4.2
Cc1cccc(NC2=C(Cl)C(=O)OC2NC(=O)c2ccccc2)c1 (configuration not stated),-22,9867,3,7,-4,7,6.5
CC1CN(C(=O)c2ccccc2)c2ccccc2NC1=O (configuration not stated),-8,2086,nt,nt,nt,10,nt
CC(C)N(C(=O)CN1CCN(S(=O)(=O)c2ccc(Br)s2)CC1)C(C)C,-13,3682,0,-2,7,nt,4.4
CSc1ccc(C2CC(=O)Nc3nc(SC)[nH]c(=O)c32)cc1 (configuration not stated),-19,2125,0,5,6,-1,2.6
Cc1ccc(S(=O)(=O)NCC2NCCc3ccccc32)cc1 (configuration not stated),-19,4085,6,5,-2,0,6.9
CCC(C)(C)n1nnnc1C(c1ccc(O)c(OC)c1)N1CCN(c2nc3ccccc3s2)CC1 (configuration not stated),-15,2889,-2,nt,nt,nt,2.9
Cc1ccc(CNC(=O)Nc2cccs2)cc1,8,3177,-3,8,2,4,-19
COc1cc(C2OC(c3cc(OC)c(OC)c(OC)c3)C(C)C2C)cc(OC)c1OC (configuration not stated),-22,5719,3,nt,nt,-7,4.0

# Overlap with the part before: two compounds, followed by the next part.
SMILES,PrP UTR inh,Bead autofluor,ugtP null kill,Mtb hypoxia rep,Mtb hypoxia rep growth,BJeLR lethal,RN4220 kill
Cc1ccc(CNC(=O)Nc2cccs2)cc1,8,3177,-3,8,2,4,-19
COc1cc(C2OC(c3cc(OC)c(OC)c(OC)c3)C(C)C2C)cc(OC)c1OC (configuration not stated),-22,5719,3,nt,nt,-7,4.0
Cn1cccc1C(=O)NC(=O)CSc1nc2ccccc2s1,-1,10114,-2,-6,4,3,3.8
Cc1ccc(C(=O)c2cc(C)sc2N)cc1,-19,2078,6,6,9,-2,9.8
Cc1ccc(Sc2nnc(Cc3ccccc3)c3ccccc23)cc1,-7,22795*,67,7,-1,6,-3.1
C=CCn1c(O)c(N=NC(=O)CNC(=O)c2ccco2)c2ccccc21,-7,2045,6,-3,-1,0,2.8
CC(=O)Oc1ccc(N2C(=O)[C@@H]3[C@H](C2=O)[C@H]2c4ccccc4C=NN2[C@@H]3C(C)=O)cc1,-4,5083,9,17,10,-10,2.6
Cc1noc(C)c1C(=O)Nc1sccc1C(N)=O,10,4164,-2,-8,9,nt,0.7
Cn1ccsc1=NC(=O)c1ccc([N+](=O)[O-])o1,-21,6540,49,18,16,-3,22
S=c1[nH]nc(COc2ccccc2)n1N=Cc1ccc(Cl)cc1Cl,nt,nt,-6,2,7,nt,4.6
